# FGF22 binding: binders of human FGF22 protein, primary screen, FGF22 synaptogenesis inhibitor project, biophysical, thermal shift, single point; Fibroblast growth factor 22 (Homo sapiens), Q9HCT0; 1.5% of 340,000 active; recombinant FGF22 thermal shift, SYPRO orange fluorescence; percent of sucrose octasulfate shift, DMSO zero; calls only at 9.99 µM;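 active = melting point raised past a set limit in the mean and every replicate; three in four hits are not shown here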
# Target sequence (Q9HCT0 whole entry, looked up): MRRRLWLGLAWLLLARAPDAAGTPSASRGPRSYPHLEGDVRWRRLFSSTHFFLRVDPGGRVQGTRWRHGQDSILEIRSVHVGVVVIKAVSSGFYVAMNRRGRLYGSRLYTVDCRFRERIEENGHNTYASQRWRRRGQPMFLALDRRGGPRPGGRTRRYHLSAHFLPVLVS
# Beta2AR agonist: beta2AR agonists driving receptor internalization, primary screen, cell-based, FAP fluorogen, flow cytometry; Am2.2-beta2AR cells; reference of the scale not given here; response, % (concentration not given with the values); 0.43% of 340,000 active; AID 504454, 2011;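 active = response above a set limit, near 3 SD of response in nonfluorescent compounds, cut at about 42% in these data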;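 note: stock transfer was 100 nL into about 11 µL; a reference agonist was the positive control; negative values mostly stem from fluorescent compounds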
# Ecoli growth: E. coli growth inhibition, primary screen, OD600; OD600 absorbance (concentration not given with the values); 0.21% of 330,000 active; Escherichia coli growth, 23 h; active compounds read low;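 active = OD600 absorbance below the run mean of sample wells minus 3.6 SD, in any replicate, cut at about 0.56 in these data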;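 note: stock transfer was 300 nL into about 60 µL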
# HNF4A DNA FP: change in binding of human HNF4A to DNA, primary screen, biochemical, fluorescence polarization, FITC-DNA; 0.3% of 360,000 active; 1 h; activity change, % at 10 µM; Hepatocyte nuclear factor 4-alpha (Homo sapiens), P41235; in the data active = activity change above about 30%, passing the limit was not always enough;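 note: controls were the assay level and a saturating level of protein; the project sought stronger binding though the title names inhibitors; some compounds called inactive have numbers as strong as hits; positive values seem to mean higher polarization but the record does not say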
# Target sequence (P41235 whole entry, looked up): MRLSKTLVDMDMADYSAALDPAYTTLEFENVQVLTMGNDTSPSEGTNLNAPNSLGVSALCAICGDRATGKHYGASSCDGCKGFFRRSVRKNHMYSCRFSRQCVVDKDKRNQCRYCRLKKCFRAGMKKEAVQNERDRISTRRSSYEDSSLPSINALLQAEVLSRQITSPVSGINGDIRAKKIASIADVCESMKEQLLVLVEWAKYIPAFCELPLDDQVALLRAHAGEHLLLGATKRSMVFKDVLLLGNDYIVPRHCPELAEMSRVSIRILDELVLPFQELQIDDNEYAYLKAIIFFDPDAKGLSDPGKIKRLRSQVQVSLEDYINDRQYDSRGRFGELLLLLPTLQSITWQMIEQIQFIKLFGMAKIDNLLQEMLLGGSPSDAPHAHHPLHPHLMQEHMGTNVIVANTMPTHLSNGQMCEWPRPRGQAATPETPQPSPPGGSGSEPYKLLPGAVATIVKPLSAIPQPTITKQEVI
# ALR inh: inhibitors of human ALR sulfhydryl oxidase, primary screen, biochemical, H2O2 detection, HRP-luminol luminescence, single point. purified ALR, DTT oxidation. inhibition, % (test concentration not listed). 3.8% of 290,000 active. FAD-linked sulfhydryl oxidase ALR (Homo sapiens), P55789;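 active = mean and each replicate at 75% or more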;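 note: stock transfer was 7.5 nL into about 7.5 µL; 0% = neutral wells and 100% = wells with inactivated enzyme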
# Target sequence (P55789 whole entry, looked up): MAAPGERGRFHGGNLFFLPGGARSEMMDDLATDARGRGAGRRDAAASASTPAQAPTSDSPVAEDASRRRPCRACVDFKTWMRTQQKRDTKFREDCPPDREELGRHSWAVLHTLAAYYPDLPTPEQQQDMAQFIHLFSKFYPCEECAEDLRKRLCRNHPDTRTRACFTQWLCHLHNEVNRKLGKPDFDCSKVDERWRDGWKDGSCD
# UCH37 DUB inh: inhibitors of human UCH37 deubiquitinase, primary screen, biochemical, Ub-AMC cleavage, fluorescence. 0.33% of 330,000 active. purified proteasome/UCH37. Ubiquitin carboxyl-terminal hydrolase isozyme L5 (Homo sapiens), Q9Y5K5. inhibition, % (test concentration not listed);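 active = mean of two replicates above 20%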;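 note: 0% = compound-free wells with enzyme and 100% = wells lacking proteasome; stock transfer was 100 nL into about 20 µL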
#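 Material: human UCH37 enzyme supplied as purified proteasome complex / Amount: 0.15 nM proteasome as dispensed / Buffer or medium: pH 7.4 Tris-HCl (50 mM) with ovalbumin, ATP-MgCl2, DTT / Times: preincubation 30 min, reaction 25 min, room temperature / Technique: AMC fluorescence from Ub-AMC cleavage, excitation 355 nm, emission 460 nm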
# Ecoli rRNA inh: reduced GFP signal of wild-type E. coli, primary screen, bacterial rRNA inhibitor project, GFP/RFP fluorescence, OD600, single point; GFP signal change (wild-type ribosome), % (test concentration not listed); 1.6% of 350,000 active; E. coli WT GFP vs humanized-ribosome RFP mutants, 24 h; active compounds read low; DMSO median 0, no signal -100;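 active = significant combined selectivity score with lowered wild-type GFP, culture density cut under 30%, mutant RFP and density less affected; inactive = any of these conditions unmet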; note: one replicate is shown; some compounds called inactive have numbers as strong as hits
# Ecoli rRNA inh OD600: recorded beside Ecoli rRNA inh, whose call it bears; OD600 change, %; measured here: OD600 growth;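 optical density of the mix in the first replicate; 0 = DMSO median and -100 = no signal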
# Ecoli rRNA inh RFP: second read-out of Ecoli rRNA inh, no call of its own (marks repeat the call); RFP signal change, %; measured here: RFP humanized mutant strains;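 first replicate; 0 = DMSO median and -100 = no signal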
# * marks the source's active call; other numbers are inactive results; i = inactive; . = no result given; & = joins results of further samples. Some of the compounds tested; the hit share may differ from the screen's.
SMILES,FGF22 binding,Beta2AR agonist,Ecoli growth,HNF4A DNA FP,ALR inh,UCH37 DUB inh,Ecoli rRNA inh,Ecoli rRNA inh OD600,Ecoli rRNA inh RFP
COc1cccc(CN(Cc2cccnc2)S(=O)(=O)c2ccc(-n3cnnn3)c(C)c2)c1OC,i,-1.0,0.698,-0.6,-6.5,5.7,-5.8,-4.8,1.5
Cc1ccc(C(=O)C[n+]2ccc(Cc3ccccc3)cc2)cc1,i,-3.5,0.637,1.4,.,0.1,-1.1,5.6,4.3
OC[C@@H]1CN(Cc2ccc(Cl)cc2)C[C@H](n2cnc3c(Nc4ccccc4)ncnc32)O1,i,.,.,-5.0,.,.,-54.0,-71.1,-14.2
CCCN1CCN(CCCNC(=O)c2ccccc2NC(=O)C2=C(C)OCCS2)CC1,i,-3.5,0.727,1.1,-11.8,5.9,1.1,1.5,-1.5
COc1ccc(C(C)=O)cc1COC(=O)Cc1cc(OC)c(OC)c(OC)c1,i,-15.1,0.702,-2.6,-0.8,-0.7,-3.1,-9.3,-0.8
CCc1ccc(NC(=O)Nc2ccsc2C(=O)OC)cc1,i,-6.9,0.671,-2.1,7.3,3.8,-7.9,-11.0,3.7
NC(=O)C1CCN(C(=O)c2ccc(NS(=O)(=O)c3ccc(Br)s3)cc2)CC1,.,-3.5,0.625,2.7,.,-0.4,3.2,6.1,-1.3
O=C(CN(C(=O)c1csnn1)c1cccc2ccccc12)NC1CCCC1,i,-6.3,0.672,0.5,-14.9,0.1,12.6,11.0,1.2
Cc1sc2nc(C3CCCCC3)nc(SCC(=O)N3CC(=O)Nc4ccccc43)c2c1C,.,39.5,0.7,-4.0,-15.7,3.3,.,.,.
CC(=O)COc1ncn(-c2ccccc2)n1,.,0.6,0.733,0.0,-6.8,1.6,.,.,.
Cc1ccc(-n2c(=S)sc3c(=O)n(-c4ccccc4F)c(SCC(=O)O)nc32)cc1C,i,0.8,0.63,0.7,21.3,9.6,-19.4,-7.9,-4.2
FC(F)(F)c1cnc(N2CCSCC2)c(Cl)c1,i,-2.3,0.625,5.8,-6.3,2.0,19.1,4.0,-2.1

# Arranged by the number under Ecoli rRNA inh RFP (lowest first): four from the list above
SMILES | Ecoli rRNA inh RFP
OC[C@@H]1CN(Cc2ccc(Cl)cc2)C[C@H](n2cnc3c(Nc4ccccc4)ncnc32)O1 | -14.2
FC(F)(F)c1cnc(N2CCSCC2)c(Cl)c1 | -2.1
NC(=O)C1CCN(C(=O)c2ccc(NS(=O)(=O)c3ccc(Br)s3)cc2)CC1 | -1.3
O=C(CN(C(=O)c1csnn1)c1cccc2ccccc12)NC1CCCC1 | 1.2

# Other results.
SMILES,FGF22 binding,Beta2AR agonist,Ecoli growth,HNF4A DNA FP,ALR inh,UCH37 DUB inh,Ecoli rRNA inh,Ecoli rRNA inh OD600,Ecoli rRNA inh RFP
O=C1NC(C(F)(F)F)(C(F)(F)F)N=C2SC=CN12,i,-3.6,0.659,1.0,-5.7,2.6,15.6,7.5,0.0
Cc1ccc(N2CC(C)Cn3c2nc2c3c(=O)n(CC(=O)OCc3ccccc3)c(=O)n2C)cc1C (stereo not drawn),.,-13.4,0.651,3.2,-2.3,-0.8,.,.,.
CCOC(=O)c1c(NC(=O)Cc2cccs2)sc(C)c1C,i,-10.0,0.691,-2.8,-1.6,0.3,-33.9*,-12.7*,-0.2*
CN(C)c1ccc(NC(=O)C(=O)NCCOc2ccccc2)cc1,i,1.7,0.726,1.6,.,1.7,6.9,13.0,-1.4
CCC1(C(=O)NC(=Nc2ccccc2)Nc2ccccc2)CCOC1=O (stereo not drawn),i,8.3,0.705,-2.7,.,4.9,9.4,18.4,-0.5
CC(C)N1CCc2c(sc(NC(=O)C3CCCCC3)c2C(N)=O)C1,i,-1.1,0.766,-3.0,-1.6,2.5,6.7,4.3,4.2
CC(=O)Nc1ccc(SCc2ncc(-c3ccccc3)o2)cc1,i,12.6,0.685,-0.6,98.6*,7.2,-13.5,-31.1,-1.0
Cc1cc2c(cc(C(=O)OC(C(=O)NC3CCCCC3)C(C)C)n2C)o1 (stereo not drawn),i,-6.4,0.677,-0.2,5.2,2.4,40.3,12.1,-0.1
CCCNC(=O)COC(=O)c1cc(SC)ccc1Cl,.,-1.9,0.718,2.2,2.1,-1.7,.,.,.
Cc1c(NC(=O)N2CCCCCC2)c(=O)n(-c2ccccc2)n1C,.,-6.0,0.73,0.2,-2.6,2.6,.,.,.
CN(C(=O)COC(=O)c1cc[n+]([O-])cc1)c1ccccc1,i,3.4,0.686,1.8,1.0,2.3,.,.,.
COCCNC(=O)COc1cc(=O)n(C)c2ccccc12,.,5.1,0.64,-1.8,-15.6,1.0,.,.,.
COCCCNC(=O)c1ccc2c(=O)n(Cc3ccc(Cl)cc3)c(=S)[nH]c2c1,i,-8.6,0.669,0.4,-2.9,1.4,2.4,7.5,-1.0
O=C(CCN1C(=O)c2ccccc2S1(=O)=O)Nc1ccc(F)c(F)c1F,i,2.5,0.645,-10.6,15.4,0.8,8.4,9.4,-0.9
C/C(=N\NC(=O)c1cccc(S(=O)(=O)N2CCOCC2)c1)c1ccc(C#N)cc1,i,-6.2,.,1.9,1.1,.,9.9,8.4,4.0
CC(C)N(C(=O)C[n+]1ccc(/C=N/O)cc1)C(C)C,i,20.2,.,-0.8,-5.7,.,2.4,-1.0,-0.3
Cc1cc(-c2ccco2)n(CC(=O)NCCN(C)C)n1,i,4.5,0.757,4.2,-10.7,6.7,14.1,15.4,-0.8
Cc1cc(C(=O)CN2C(=O)C(=O)N(Cc3ccccc3)C2=O)c(C)n1Cc1ccccc1,i,11.9,0.715,3.0,-0.8,5.2,1.6,-0.1,-0.6
COc1cc(CN2CCSCC2)c([N+](=O)[O-])cc1OC,i,-6.5,0.655,-3.2,.,3.8,11.2,-0.5,-0.3
CCOC(=O)Cn1c(=NC(=O)CSC(C)=O)sc2cc(OC)ccc21,.,0.3,0.723,-1.3,40.1,-8.4,.,.,.
COc1ccccc1NC(=O)NC1(C(=O)N2CCOCC2)CCCCC1,i,-0.6,0.673,0.9,-0.5,0.5,-3.8,1.7,-2.9
Cc1cc(C)c(-c2cc(NC(=O)COC(=O)c3ccc(NC(=O)CC#N)cc3)n(-c3ccccc3)n2)cc1C,i,5.3,0.649,-1.0,1.6,0.4,3.8,7.3,2.9
C[C@@H]1CN([C@H](C)CO)C(=O)CCCn2nncc2CO[C@H]1CN(C)C(=O)OCc1ccccc1,i,.,.,2.9,.,.,16.0&-2.2,11.3&-0.1,1.9&0.6
CCNc1cc(=O)n(C)c(=O)n1C,.,0.0,0.788,-0.5,0.5,2.7,.,.,.
O=S(=O)(Cc1cccc(C(F)(F)F)c1)c1ncn[nH]1,i,-2.6,0.618,1.2,6.3,-2.1,17.4,12.2,-0.5
Cc1cc(C)cc(-n2ccn(CC(=O)NCCc3ccccc3)c(=O)c2=O)c1,i,7.5,0.624,-3.4,-6.0,-1.0,6.1,16.8,-1.7
C=CCc1ccccc1OCCOc1ccc([N+](=O)[O-])cc1/C=N/NC(N)=O,i,-7.0,.,-2.9,-1.4,.,2.5,-0.8,-0.3
CC(C)C(=O)Nc1cccc(NC(=O)c2cccc(Br)c2)c1,i,5.0,.,-1.0,0.5,.,8.6,7.0,0.4
Cc1nc2ccc(NC(=S)NC3CC3)cc2nc1C,i,-2.2,0.658,0.8,-37.1,2.5,11.6,0.5,4.4
COc1cccc(CN(C)C(=O)c2ccc(S(=O)(=O)Nc3ccccc3F)cc2)c1OC,i,-0.1,0.668,-5.9,.,-0.1,-7.7,-7.4,4.0
CCc1ccccc1NC(=O)Cn1nc(C)n2cccc2c1=O,i,-0.9,0.709,-1.1,-5.2,0.1,4.6,11.1,-1.4
CC1CC(C)CN(C(=O)CCC(=O)Nc2nnc(C3CCCCC3)s2)C1 (stereo not drawn),i,-3.8,0.691,-0.6,-7.9,-0.3,7.3,9.5,1.5
C=CCNC(=O)COC(=O)COc1ccc(Cl)cc1,i,-1.6,0.72,1.6,0.5,4.2,8.9,11.7,-3.7
O=C(COc1ccc(C(=O)c2ccccc2)cc1)NC1CCCCC1,i,2.5,0.65,-0.3,-9.4,-0.1,-2.2,1.0,-7.7
O=C(COC(=O)c1c(Cl)cccc1Cl)NCc1cccs1,i,-5.3,0.654,-2.0,-1.5,3.2,-12.1,-8.1,-1.1
Cc1ccc(Sc2ccc(NC(=O)CCl)cc2)c(C)c1,i,.,.,.,20.3,0.4,-62.5,-81.8,-19.0
CCC(NS(=O)(=O)c1ccc2c(c1)Cc1cc(S(=O)(=O)NC(CC)C(=O)O)ccc1-2)C(=O)O (stereo not drawn),i,-2.1,0.688,1.4,-16.0,0.0,0.9,9.6,1.7
Cc1noc(C)c1COc1ccccc1C(=O)NNC(=O)c1ccccc1F,i,-2.7,0.656,-6.6,-4.4,-0.1,-0.1,-1.7,-2.5
NC(=O)COc1ccc(NC(=O)OCc2ccccc2)cc1,.,5.9,0.765,5.0,-4.6,-3.7,.,.,.
O=C(COC(=O)c1ccc(Br)c(S(=O)(=O)N2CCOCC2)c1)NCC1CCCO1 (stereo not drawn),.,4.2,0.731,-0.7,14.0,0.8,.,.,.
CCCS(=O)(=O)N1CCCC(C(=O)NCCCN(CC)c2cccc(C)c2)C1 (stereo not drawn),.,-5.6,0.724,-1.3,98.7*,2.6,.,.,.
COc1ccc(C(C)=O)c(OC(=O)c2ccco2)c1,.,5.5,0.721,1.3,3.6,4.2,.,.,.
COc1ccc(/C=C2/C(=O)N(c3ccccc3)N=C2C)cc1,.,-0.3,0.687,5.3,-10.1,5.1,.,.,.
COc1ccccc1NS(=O)(=O)c1ccc(C)c(C(=O)Nc2ccc(S(=O)(=O)Nc3onc(C)c3C)cc2)c1,i,-4.3,.,-1.4,.,.,3.7,8.2,4.6
COc1ccc(CCN2CCCC(CN(C)C(=O)c3cc(C)oc3C)C2)cc1 (stereo not drawn),i,1.9,0.678,0.9,5.3,0.7,4.2,9.4,2.5
CC(C1CC2CCC1C2)n1c(-c2cccs2)n[nH]c1=S (stereo not drawn),i,0.8,0.663,-1.9,28.9,-0.1,-28.6,-24.3,-0.2
COC(=O)c1[nH]c2c(c1C)C(=O)CC(c1cc(OC)ccc1OC)C2 (stereo not drawn),i,-2.8,0.783,2.2,-9.0,3.7,1.6,12.0,-2.5
COc1ccc([C@H]2CC(=O)C=C(c3ccc(C)c(F)c3)C2)cc1,i,-3.4,.,0.6,-1.8,3.4,-17.8,-29.0,-18.0
COCc1nnc(NC(=O)CCSc2ccccc2)s1,.,1.3,0.656,-3.2,-1.0,0.4,.,.,.
Cc1ccc(C(=O)NNC(=O)C(C)Oc2ccccc2F)cc1S(=O)(=O)N1CCOCC1 (stereo not drawn),i,-5.4,0.651,-3.0,6.2,1.0,5.3,3.6,1.9
